Source: PubChem (National Center for Advancing Translational Sciences (NCATS))
VDR inh: vitamin D3 receptor (human) inhibition; P11473; VDR-SRC2-3 peptide fluorescence polarization, 2 h; Potency, µM, for the others: max response, negative = inhibition, most hits filed as inhibitors; 400,000 tested, 0.93% active; active = well fitted inhibition curve with a large enough effect; inconclusive = small, poorly fitted or top-dose-only effect, or another doubt; inactive = no such curve, though single readings can be large or run the other way; note: series mostly up to about 120 µM
Target sequence (P11473 whole entry, looked up): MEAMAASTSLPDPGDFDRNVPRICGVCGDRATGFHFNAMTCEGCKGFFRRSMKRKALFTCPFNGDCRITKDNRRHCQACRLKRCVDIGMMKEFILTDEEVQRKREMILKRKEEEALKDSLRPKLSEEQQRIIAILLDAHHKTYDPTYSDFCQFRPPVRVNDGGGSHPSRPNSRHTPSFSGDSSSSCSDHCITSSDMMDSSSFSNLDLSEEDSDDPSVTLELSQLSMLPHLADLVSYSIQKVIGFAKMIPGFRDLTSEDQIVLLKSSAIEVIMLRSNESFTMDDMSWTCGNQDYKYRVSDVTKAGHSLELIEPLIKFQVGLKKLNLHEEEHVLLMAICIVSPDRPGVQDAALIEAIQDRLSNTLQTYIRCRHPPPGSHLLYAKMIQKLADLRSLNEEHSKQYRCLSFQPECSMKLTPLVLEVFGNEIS
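VDR–SRC2-3 interaction, FP format. Cmpds 23 nl via pintool, brief spin, 2 h ambient incubation.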
An asterisk follows results filed as active; ? = inconclusive; & = joins results of further samples; [ ] = another dose, or the depositor's remark. % is set by controls: 0 for no effect and ±100 for the full control effect; potency is the fitted concentration of half-maximal effect.

SMILES | VDR inh
O=S(=O)(c1ccc2c(c1)OCCO2)N1CCC(c2nc3ccc(Cl)cc3[nH]2)CC1 | 22%
COc1ccc(C=NNC(=O)CCCC(=O)NN=Cc2ccc(OC)c(O)c2)cc1O | -18%
Nc1nc(N)nc(-c2cc(C(F)(F)F)ccc2Cl)n1 | 10%
CN(C)c1ccc(C2/C(=C(/O)c3ccccc3)C(=O)C(=O)N2CCCC(=O)O)cc1 (configuration not stated) | -16%
SC(COCc1ccccc1)CN1CCN(Cc2ccc3c(c2)OCO3)CC1 (configuration not stated) | -13%
Cc1ccc(Cn2c(CN3CCC(C(=O)NCCc4ccccc4)CC3)cc3ccccc32)cc1 | 6%
CC(C)C[C@@]12C(=O)N(c3cccc(F)c3)C(=O)N1[C@H](c1ccc(F)cc1)[C@@H]1C(=O)N(C3CCCCC3)C(=O)[C@@H]12 | -10%
OC(CNCc1cccnc1)COc1ccc2ccccc2c1 (configuration not stated) | -6%
COc1ccc(-c2nc3scc(CCNS(=O)(=O)c4c(C)noc4C)n3n2)cc1OC | 18%
COc1ccc(Oc2ncc3nc(-c4ccccc4)c(=O)n(C[C@H]4CCCO4)c3n2)cc1 | 13%
COc1ccc(C2c3ccc4ccccc4c3Oc3ncn(CCO)c(=N)c32)cc1OC (configuration not stated) | 11%
O=C(Nc1ccc(S(=O)(=O)N2CCCC2)cc1)c1ccc(F)cc1 | 7%
BrC(=C\c1ccccc1)/C=N/Nc1nc2ccccc2[nH]1 | ?
Cc1cc(C(=O)OCC(=O)Nc2ccccc2)c(C)o1 | 2%
COc1cccc(N2CCN(C(=O)c3cnn(-c4ccccc4Cl)c3C3CCN(C(=O)OC(C)(C)C)CC3)CC2)c1 | 1%
COCCN(CCOC)C(=S)Nc1ccccc1 | -6%
CC1(C)C(=O)OC(c2cccn2-c2ccc([N+](=O)[O-])cc2)C2(CCCCC2)C1=O (configuration not stated) | 7%
CN(C(=S)NCCN1CCOCC1)C(c1ccccc1)c1ccccc1 | -5%
CC1(C)Cc2c(ccc3ccccc23)C(c2cc3ccccc3oc2=O)=N1 | 7%
Cc1ccc2cc(CN(C(=O)c3cccnc3)C(C)C)c(=O)[nH]c2c1 | 6%
COc1cc(OC)c(NC(=O)c2cnc(N3CCCC3)nc2C)cc1Cl | 3%
COc1cc(NC(=O)NC2Cc3ccccc3C2)cc(OC)c1 | -1%
CCOc1ccc(CC(=O)NC2CC(=O)N(c3cccc(F)c3)C2)cc1 (configuration not stated) | -4%
Cc1ccc(Cl)cc1NC(=S)N1CCCCCC1 | 0%
CC(=Nc1ccc(C)cc1C)c1sc2ccccc2c1O | -5%
CC12C(=O)N(c3nccs3)C(=O)C1C1C=CC2C1 (configuration not stated) | 0%
COc1ccc(-c2cc(C(C)=O)c(C)n2CCC(=O)Nc2ccc(C(F)(F)F)cc2)cc1 | 0%
Cc1onc(-c2ccccc2Cl)c1C(=O)Nc1ccc(Br)cc1 | -22%
O=C(NC1CC2CCCC(C1)N2CC(=O)N1CCCc2ccccc21)C1CCCCC1 (configuration not stated) | 11%
CCCNC(=O)c1ccccc1NC(=O)c1cccc(-n2cnnn2)c1 | -4%
O=C(NNC(=O)c1ccco1)c1csc(N2CCOCC2)n1 | -19%
CCCc1cc(-n2ccnc2C)n2c(nc3ccccc32)c1C#N | 1%
O=C(Nc1ccc2c(c1)OCO2)C1CC(c2ccc(Cl)cc2)=NO1 (configuration not stated) | -3%
CNC(=O)C1CCN(S(=O)(=O)c2c(C)noc2/C=C/c2ccccc2F)CC1 | -5%
C=CCn1cc(/C=C2\SC(N3CCOCC3)=NC2=O)c2ccccc21 | -4%
NC(=O)C[n+]1cccc2ccccc21 | -1%
O=C(O)C(Cc1c[nH]c2ccccc12)NS(=O)(=O)c1cccc(Cl)c1Cl (configuration not stated) | -6%
N#CC(C#N)=C1c2cc(S(=O)(=O)NCCO)ccc2-c2ccc(S(=O)(=O)NCCO)cc21 | ?
O=C(COC(=O)c1ccc(Br)o1)Nc1nc2ccccc2s1 | 14%
O=Cc1c(NCc2cccc(F)c2)c2ccccc2[nH]c1=O | 1%
COc1ccc(C(C)=O)cc1COC(=O)c1ccc2c(c1)OCO2 | -3%
N#Cc1ccccc1COC(=O)c1cccnc1N | ?
Cc1cccc(C)c1OCc1cc(C(=O)N(C)CCc2ccccn2)no1 | 9%
CC1CCCN(S(=O)(=O)c2ccc(NC(=O)c3nc(SC(C)C)ncc3Cl)cc2)C1 (configuration not stated) | 0%
COc1ccc(-n2c(=O)c3ccccc3n(CC(=O)NC3CCCCC3)c2=O)cc1 | 7%
C[C@@H]1CC[C@H]2C(=O)N3[C@@H](CC[C@@H](C)[C@@H]3c3ccc(Br)cc3)C(=O)N2[C@H]1c1ccc(Br)cc1 | -3%
CCOC(=O)c1ccc(N2CN(CCc3ccccc3)CNC2=S)cc1 | -25%
O=C(COCc1cc(-c2ccc3c(c2)OCO3)on1)Nc1cccc(O)c1 | 11%
CCNc1ncc2nc(-c3cccs3)c(=O)n(C)c2n1 | -8%
Cc1[nH]n(C(N)=S)c(=O)c1N=Nc1cccc(C(F)(F)F)c1 | -7%
CCc1sc(C(=O)N2CCN(c3ncccn3)CC2)cc1Br | -8%
CCc1nnc(NC(=O)c2ccc(S(C)(=O)=O)cc2)s1 | 20µM*
CC(C)(C)OC(=O)NCCCCCNC(=O)c1[nH]cnc1C(=O)Nc1ccc(Cl)cc1 | 9%
Cn1c(=O)c(C#N)c(-c2ccc(F)cc2)c2cc(C(=O)c3cc(Cl)cc(Cl)c3O)cnc21 | 4%
O=C(CN1CCCN(Cc2ccc(F)cc2Cl)C1=O)NCc1ccccc1 | -3%
COc1ccc(C2CC(c3ccc(F)cc3)n3nc(NC(=O)c4ccco4)nc3N2)cc1 (configuration not stated) | -25%
O=C(c1ccc([N+](=O)[O-])s1)N1CCc2ccccc2C1 | -12%
Cc1cccc(OCc2nnc(SCC(=O)Nc3cc(C)on3)n2C)c1 | 3%
Clc1ccc(C2Nc3cccc4cccc(c34)N2)c(Cl)c1 | -3%
O=C(CCSc1nc2ccccc2s1)N/N=C/c1c(O)ccc2ccccc12 | -10%

(further entries)
SMILES | VDR inh
CCOc1ccc(-n2ccnc(SCC(=O)NC3CCCC3)c2=O)cc1 | -28%
CC(C)CN(C(=O)CN1CCN(S(=O)(=O)c2ccccc2)CC1)c1c(N)n(CC(C)C)c(=O)[nH]c1=O | -20%
O=S(=O)(c1ccc(NC(=S)Nc2ccccc2)cc1)N1CCOCC1 | -13%
CCOC(=O)c1cc(-c2ccccc2)n(CCC(=O)N2CCN(c3ccccn3)CC2)c1C | 13%
CC(C)COc1cccc(C(=O)NNC(=O)C2COc3ccccc3O2)c1 (configuration not stated) | -9%
Cc1nn(Cc2ccc(Cl)cc2)c(C)c1NC(=O)c1c(-c2ccccc2)noc1C | 21%
CN(C)CCN(C(=O)c1cc(Cl)sc1Cl)c1nc2ccc(F)cc2s1 | -18%
CCCCC(CC)c1nnc(NC(=O)c2cccs2)s1 (configuration not stated) | 3%
CCCCN(CCCC)CCNC(=O)Cn1nc(C)n2c(cc3sccc32)c1=O | -13%
CC1CCCCC1NC(=O)CCN1C(=O)C2C3C=CC(C3)C2C1=O (configuration not stated) | 5%
Cc1cc(NC(=O)/C=C/c2ccccc2)c(C(C)C)cc1O | 21%
CCOC(=O)c1ccc(NC(=O)CCC(=O)OC)cc1 | -9%
Cc1ccc(CNC(=O)C2CCN(Cc3nc(-c4ccccc4C)oc3C)CC2)cc1 | -7%
CC(C)(Cc1cccc(CC(C)(C)C(=O)O)c1)C(=O)O | -15%
CC(Oc1ccc2c3c(c(=O)oc2c1)CCC3)C(=O)NC1CCN(Cc2ccccc2)CC1 (configuration not stated) | -2%

Taken from above.
VDR inh, `CC(C)(Cc1cccc(CC(C)(C)C(=O)O)c1)C(=O)O` stands at -15%
VDR inh, `Cc1ccc(CNC(=O)C2CCN(Cc3nc(-c4ccccc4C)oc3C)CC2)cc1` stands at -7%
VDR inh, `CCOC(=O)c1cc(-c2ccccc2)n(CCC(=O)N2CCN(c3ccccn3)CC2)c1C` stands at 13%

Later entries
SMILES | VDR inh
Cn1c(N)c(C(=O)COC(=O)c2cc(-c3ccco3)nc3ccccc23)c(=O)n(C)c1=O | 3%
O=c1cc(CO)oc(C(Nc2ccccn2)c2ccc(F)cc2)c1O (configuration not stated) | 28µM*
O=C(Nc1ccc(C(=O)N2CCN(c3ccc(F)cc3)CC2)cc1)C1=CSCCO1 | -7%
CCOC(=O)C1(CCOc2ccccc2)CCN(Cc2ccc(COC)o2)CC1 | -11%
CCN(CC)S(=O)(=O)c1ccc(NC(=O)COC(=O)c2cc(S(=O)(=O)Nc3ccc(OC)cc3)ccc2O)cc1 | -4%
Cc1ccc(S(=O)(=O)N2CCOCC2)cc1C(=O)O | 9%
N#CCCN1CCN(C2=NC(=O)/C(=C\c3cccs3)S2)CC1 | 10%
Cc1cc([N+](=O)[O-])nn1CC(=O)c1ccccc1 | 1%
CC1=C(C(=O)Nc2ccccc2C)C(c2ccc(C)o2)NC(=S)N1 (configuration not stated) | -14%
CN(C(=O)c1cccc([N+](=O)[O-])c1)c1ccccc1C(=O)NCc1ccccc1 | -20%
COc1cccc(CNC(=O)Cn2c(C)c3cnn(-c4ccccc4)c(=O)c3c2C)c1 | 4%
COc1ccccc1CNC(=O)c1oc2ccc3c(c2c1C)C(=O)CC(C)(C)O3 | 5%
COc1ccccc1-c1nn(-c2ccccc2)cc1C(=O)NC1CC1 | 14%
Cc1cccc(OCc2nc3ccccc3c(=O)n2N)c1 | 8%
Cc1ccc(S(=O)(=O)Nc2ccsc2C#N)cc1 | 4%

The closing seven entries of the part before are carried over, then new ones follow:
SMILES | VDR inh
CC1=C(C(=O)Nc2ccccc2C)C(c2ccc(C)o2)NC(=S)N1 (configuration not stated) | -14%
CN(C(=O)c1cccc([N+](=O)[O-])c1)c1ccccc1C(=O)NCc1ccccc1 | -20%
COc1cccc(CNC(=O)Cn2c(C)c3cnn(-c4ccccc4)c(=O)c3c2C)c1 | 4%
COc1ccccc1CNC(=O)c1oc2ccc3c(c2c1C)C(=O)CC(C)(C)O3 | 5%
COc1ccccc1-c1nn(-c2ccccc2)cc1C(=O)NC1CC1 | 14%
Cc1cccc(OCc2nc3ccccc3c(=O)n2N)c1 | 8%
Cc1ccc(S(=O)(=O)Nc2ccsc2C#N)cc1 | 4%
O=C(c1ccncc1)N1c2ccccc2Sc2ccccc21 | 9%
CCOc1ccc(CCNC(=O)Cn2nc(CC)n3c(cc4sccc43)c2=O)cc1 | 1%
O=C(Cc1ccc(Cl)cc1)NNC(=O)C(=O)NC1CCCCC1 | -1%
Cc1ccccc1NC(=O)CCN1C(=O)CSC1=O | -1%
CC(=O)Nc1cccc(OCCCNS(=O)(=O)c2ccc(C#N)cc2)c1 | 14%
COc1ccc(NC(=O)CN(c2ccc([N+](=O)[O-])cc2)S(=O)(=O)c2ccccc2)cc1 | -6%
C=CCC[C@H](Cc1ccc(F)cc1)C(=O)OC[C@H](Cc1c[nH]c2ccccc12)NC(=O)[C@H](CC=C)CC(=O)N(CCO)Cc1ccccc1 | -11%
Cc1cccc(N2CCC(N3CCN(C4CCCCC4)C(CCO)C3)CC2)c1C (configuration not stated) | 8%
COc1ccc(/C=C2\SC(=S)N(CCCC(=O)N3CCN(C)CC3)C2=O)cc1 | -10%
O=C(COc1ccccc1-c1ccccc1)N/N=C/c1ccc2ccccc2c1 | -18%
O=C(OCCCOC(=O)c1ccc([N+](=O)[O-])o1)c1ccc([N+](=O)[O-])o1 | -12%
CC(C)(C)n1cc(S(=O)(=O)c2ccccc2)[nH]c1=O | 30%[activator]
O=C(CSC1=Nc2ccccc2C2CC=NN12)Nc1ccc(F)c(F)c1F (configuration not stated) | -15%
Cc1coc2c(C)c3oc(=O)c(CC(=O)N4CCCCC4)c(C)c3cc12 | -3%
CCOC(=O)c1c(C)[nH]c(C(=O)OCC(=O)Nc2cc(Cl)ccc2OC)c1C | 4%
COc1cccc(C2C(C(=O)OCc3ccccc3)=C(C)Nc3ncnn32)c1OC (configuration not stated) | -2%
Cc1ccc(S(=O)(=O)N(CCC(=O)N2CCOCC2)c2ccccc2)cc1 | -4%
CCc1ccc(Oc2nc3c(C)cccn3c(=O)c2/C=C(\C#N)c2nc3ccccc3[nH]2)cc1 | -2%
N#CCC(=O)N/N=C/c1cc([N+](=O)[O-])ccc1N1CCCC1 | -8%
COc1ccc(/C=C2\Cc3ccccc3C2=O)cc1OC | 9%
CC(=O)c1cccc(NC(=O)CN2CCN(Cc3ccccc3)CC2)c1 | -23%
CCOC(=O)C1CCN(C(=O)Cn2cnc3sc(C)c(S(=O)(=O)N4CCC(C)CC4)c3c2=O)CC1 | 2%
O=C(O)Cn1c(P(=O)(O)c2ccccc2)nc2ccccc21 | -6%
Clc1ccc2[nH]c3c(NCCCN4CCOCC4)ncnc3c2c1 | 5%
Cc1cc(Cl)cc(C)c1OCCCCCn1ccnc1 | -2%
COC(=O)C1=C(N)Oc2cc(C)n(Cc3ccncc3)c(=O)c2C1c1cccnc1 (configuration not stated) | 5%
COc1cc(O)c(C(CC(=O)N2CCOCC2)c2ccc3c(c2)OCO3)c(OC)c1 (configuration not stated) | -3%&-12%
COc1ccc(CNC(=O)C/C(C)=N/NC(=O)c2ccc([N+](=O)[O-])cc2Cl)cc1 | 6%
COC1=C/C(=C/c2c(O)c(C#N)c3ccccn23)C=CC1=O | ?
CCN(CC(=O)Nc1ccc(NC(C)=O)cc1)C(=O)COc1ccccc1-c1ccccc1 | -7%
O=C(COc1ccc(F)cc1)c1c(O)cc(O)cc1O | -13%
O=S(=O)(Cc1ccccc1)Nn1cnnc1 | 10%
O=C(CN1CCC(NC(=O)c2ccco2)CC1)Nc1ccccc1C(F)(F)F | -19%
O=C(Nc1ccc(S(=O)(=O)N2CCOCC2)cc1)C1CCN(S(=O)(=O)c2ccc(F)cc2)CC1 | 5%

Only part of the results is shown; count on the stated rates, not on these rows.
